KCNQ2 enhance – potentiators of rat KCNQ2 potassium channel; Potassium voltage-gated channel subfamily KQT member 2 (Rattus norvegicus), O88943; CHO-K1 KCNQ2, FluxOR thallium flux fluorescence; hits give high values; B-score at 10 µM; 310,000 compounds, 0.54% hits; AID 2239, 2010;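 active = fluorescence ratio B-score at least 3 SD of library B-scores, with initial fluorescence B-score within 3 SD, cut at about 5.3 in these data; same plate scores as AID 2156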;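 note: B-score of peak minus minimum over baseline fluorescence ratio after K+ and Tl+ stimulus; positive B-score means potentiation of KCNQ2 with more thallium influx and brighter signal; only the inactives scoring about 0 or higher are listed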
Target sequence (O88943 whole entry, looked up): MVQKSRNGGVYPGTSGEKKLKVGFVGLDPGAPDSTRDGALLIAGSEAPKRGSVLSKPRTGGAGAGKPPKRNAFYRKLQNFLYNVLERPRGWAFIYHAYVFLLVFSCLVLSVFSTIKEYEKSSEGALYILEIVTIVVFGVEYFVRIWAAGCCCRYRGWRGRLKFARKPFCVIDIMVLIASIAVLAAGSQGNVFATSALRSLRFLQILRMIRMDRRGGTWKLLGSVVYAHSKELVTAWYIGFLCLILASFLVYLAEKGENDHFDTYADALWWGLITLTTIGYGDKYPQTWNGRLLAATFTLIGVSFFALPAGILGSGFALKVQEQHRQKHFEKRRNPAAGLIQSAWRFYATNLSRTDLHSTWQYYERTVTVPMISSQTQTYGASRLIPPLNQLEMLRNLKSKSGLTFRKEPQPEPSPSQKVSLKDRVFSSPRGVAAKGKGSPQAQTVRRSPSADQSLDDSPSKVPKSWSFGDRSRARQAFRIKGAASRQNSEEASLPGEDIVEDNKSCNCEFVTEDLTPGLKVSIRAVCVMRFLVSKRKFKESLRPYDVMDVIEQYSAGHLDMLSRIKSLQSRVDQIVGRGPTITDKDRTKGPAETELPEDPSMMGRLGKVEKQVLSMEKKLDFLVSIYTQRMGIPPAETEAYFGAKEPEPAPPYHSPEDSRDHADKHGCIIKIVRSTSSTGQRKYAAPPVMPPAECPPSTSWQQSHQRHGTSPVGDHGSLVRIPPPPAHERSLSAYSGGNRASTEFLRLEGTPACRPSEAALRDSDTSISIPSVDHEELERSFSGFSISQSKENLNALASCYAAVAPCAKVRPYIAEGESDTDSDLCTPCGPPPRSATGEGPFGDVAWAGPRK
KCNQ2 enhance baseline – also measured in KCNQ2 enhance; calls as there; B-score; compound at 10 µM; measured here: initial fluorescence intensity artifact check;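 brightness before thallium and not channel activity; 0 = typical well and far values either way flag optical interference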
Numbers without * were called inactive. Some of the compounds tested; count on the stated rates, not on these rows.

SMILES	KCNQ2 enhance	KCNQ2 enhance baseline
CCc1ccc(-c2nc(CS(=O)CC(=O)NCCN3CCCCCC3)c(C)o2)cc1 (stereo not drawn)	0.43	-0.03
Cn1c(Cn2nnc3ccccc32)nnc1SCC(=O)Nc1nccs1	0.18	0.04
CC(=O)Nc1cccc(NC(=O)c2csc(C)c2)c1	0.9	2
O=C(Nc1nnc(CC2=CCCCC2)s1)c1cccs1	0.08	1.9
CC1=C(C(=O)OC(C)C)C(C2CC=CCC2)NC(=O)N1 (stereo not drawn)	0.05	1.8
Cn1cnnc1SCc1ccc(C#N)cc1Cl	0.88	-0.07
CCN(C(=O)COC(=O)c1sccc1C)c1c(N)n(Cc2ccccc2)c(=O)[nH]c1=O	0.22	-1.9
CC1CCN(C(=O)C2c3ccccc3C(=O)N3CCc4ccccc4C23)CC1 (stereo not drawn)	0.42	-0.6
Cc1cc(NC(=O)c2c(C)noc2C)no1	0.08	1.9
Cn1cccc1C(=O)OCC(=O)Nc1cccc(S(=O)(=O)N2CCOCC2)c1	0.04	1.4
O=C(NCCC1=CCCCC1)c1ccc2c(c1)N(Cc1ccccc1)C(=O)CS2	0.01	-1.9
Cc1ccc(-c2noc(CCCC(=O)NC3CCCCC3)n2)cc1	0.99	-1.2
Cc1ccc(-n2c(NN)nc3ccccc3c2=O)c(C)c1	0.01	-0.59
Cc1cccc(C(=O)NCC(=O)N2CCCC2)c1	0.74	-0.13
CCOC(=O)c1ccc(N2C(=O)c3n[nH]c(C)c3C2c2ccccn2)cc1 (stereo not drawn)	0.27	-0.77
O=C(Nc1ccccc1C(=O)Nc1ccncc1)c1ccccc1	0.68	-0.23
CCCCC1(C)NC(=S)N2N1C(=S)NC2(C)CCCC (stereo not drawn)	0.64	-0.42
CCOc1ccccc1OCC(=O)Oc1ccc(C)c(C)c1	0.29	2.1
CCC(=O)N1CCc2cc(S(=O)(=O)Nc3ccccc3C)ccc21	0.38	0.39
CCc1ccc(/C=C/c2c([N+](=O)[O-])c(=O)n(C)c(=O)n2C)cc1	0.72	-0.13
CCOc1ccc(/C=C/C2=NNC(=O)CC2)cc1	1.4	-0.13
COc1ccc(C(=O)COC(=O)CNC(=O)c2cccc(OC(F)F)c2)cc1	0.14	1.6
C[C@H](NC(=O)OC(C)(C)C)c1nnc(SCC(N)=O)o1	0.15	0.79
COc1cccc(CNC(=O)c2ccc(NC(=O)C3=CSCCO3)cc2)c1	1.1	0.76
O=C(Cc1ccc(Cl)cc1)NC1CCCN(Cc2ccccc2F)C1 (stereo not drawn)	2.4	0.01
(list continues)
SMILES	KCNQ2 enhance	KCNQ2 enhance baseline
COc1cccc(NC(=O)CC2(CC(=O)O)CCCC2)c1	0.04	0.01
O=C(O)CCCC(=O)NCc1c(Cl)cccc1Sc1ccc(Cl)cc1	0.03	-2.6
COc1cccc(CC(=O)Nc2ccccc2C(=O)N2CCOCC2)c1	0.29	-1.1
CCCCN1CCNC[C@@H]1Cc1ccc(O)cc1	0.43	-0.78
COc1ccc(/C=C2/C(=O)N(c3c(F)c(F)c(F)c(F)c3F)N=C2C)cc1	0.21	0.62
CC1(C(O)(C#CC[N+]2(C)CCCCC2)c2ccccc2)CCCC1 (stereo not drawn)	0.2	3
OCc1ccccc1CNCc1ccccc1	0.18	-0.09
Cc1[nH]nc(SCC(=O)NC(C)c2ccccc2)c1[N+](=O)[O-] (stereo not drawn)	0.76	-0.34
CCC(C)NS(=O)(=O)c1ccc(NC(=O)c2ccc([N+](=O)[O-])cc2Cl)cc1 (stereo not drawn)	1.6	-0.67
CC(/C=N/NC(=O)c1ccccc1C)=C\c1ccccc1	0.09	-1.2
CCOc1ccc(CCNS(=O)(=O)c2ccc3c(c2)oc(=O)n3C)cc1OCC	0.42	-0.2
COc1ccc(C(=O)COC(=O)c2cccnc2Cl)c(OC)c1	2.3	-0.26
CC1(C)Cc2c(c(-c3ccco3)nc3sc4c(NCC5CCCO5)ncnc4c23)CO1 (stereo not drawn)	0.04	-0.93
O=C(NC1CCCCC1)c1ccc(S(=O)(=O)N2CCCC2)cc1	0.86	-2.2
Cn1ccs/c1=N\S(=O)(=O)c1ccc(C(C)(C)C)cc1	0.61	1.2
Cc1c(NC(=O)C2CCCCC2)cc(C(=O)N2CCOCC2)cc1[N+](=O)[O-]	0.79	0.1
COCCNC(=O)COc1ccc(Oc2ccccc2)cc1	1.4	-0.75
COc1cccc2c1OCC/C2=N\NC(=O)COc1ccc(C)cc1	0.24	-1.1
Cc1ccc(C(=O)N2CCN(c3ncccn3)CC2)cc1	0.85	2.1
O=C(CSc1ccc2ccccc2c1)Nc1ccc(S(=O)(=O)Nc2nccs2)cc1	0.82	-0.52
CC1CCCN(C(=S)Nc2ccc3nc4n(c(=O)c3c2)CCCCC4)C1 (stereo not drawn)	0.32	1.5
CCOC(=O)C1=C(CN2CCCCCC2)NC(=O)NC1c1cccc([N+](=O)[O-])c1 (stereo not drawn)	1.6	-0.32
O=C(Nc1ccccn1)c1ccc(Cl)c(S(=O)(=O)N2CCCC2)c1	0.12	-0.82
COc1ccc(-c2oc3ccccc3c(=O)c2OCC(=O)O)cc1	0.85	-0.89
CCOc1ccc(C(=O)Nc2nnc(S(=O)(=O)N3CCCCC3)s2)cc1	0.35	2.4
Next structures:
SMILES	KCNQ2 enhance	KCNQ2 enhance baseline
O=C(NCc1ccccc1)c1ccc2c(=O)n3c(nc2c1)CCCCC3	0.14	-0.59
CCC(C)[C@H](NC(=O)Nc1ccc(C(C)=O)cc1)C(=O)OC (stereo partly drawn)	1.6	-0.63
O=C(CCCCCn1c(=S)[nH]c2cc3c(cc2c1=O)OCO3)N1CCN(Cc2ccccc2)CC1	0.07	-0.5
Cc1ccc(NC(=O)Cn2cccc2C2=NC(c3ccccc3)CO2)c(C)c1 (stereo not drawn)	0.51	0
O=[N+]([O-])c1c(Nc2ccc(Br)cc2)ccc2nonc12	0.68	-1.5
Cc1ccn(CCC(=O)Nc2ccc(-c3ccno3)cc2)n1	0.46	0.08
CCCCCc1ccc(-c2ccc(=O)[nH]n2)cc1	2.7	0.33
O=C(CNC1CCCCCC1)Nc1ccc(S(=O)(=O)NC2CC2)cc1	0.37	1.3
Cc1ccccc1OCc1nc(-c2ccc(NC(=O)c3ccco3)cc2)no1	1.9	-5
Nc1ccc(C(=O)Nc2nc3ccccc3s2)cc1	1	0.31
CC(C)c1ccc(CNc2ccc([N+](=O)[O-])cn2)cc1	3	-0.76
CC1(c2ccccc2Cl)NC(=O)N(CC(=O)Nc2ccc(N3CCCCC3)cc2)C1=O (stereo not drawn)	3.1	-0.48
Cc1nnc(-c2ccc(Oc3ccc(Cl)cc3)c([N+](=O)[O-])c2)o1	0.07	-0.98
COC(=O)c1sccc1NC(=O)Cn1cnc2c1c(=O)n(C)c(=O)n2C	1.7	0.83
COCCCn1c(SC(C)C(=O)NC2CC2)nc2ccccc2c1=O (stereo not drawn)	2.6	-2.5
O=C(Nc1ccc2c(c1)OCO2)N1CCCC1	1.9	0.53
COc1ccc(C(=O)Nc2ccc(NC(=O)c3ccccn3)cn2)cc1	0.05	0.09
C#CCOc1ccc(C2C3=C(CCCC3=O)N(CC(=O)O)C3=C2C(=O)CCC3)cc1Br	1.1	2
COc1ccc(S(=O)(=O)N2CCCCCC2)cc1C(=O)N(C)Cc1ccco1	0.35	-0.02
CCCSc1nc2[nH]ncc2c(=O)[nH]1	0.61	0.07
Cc1ccc(F)cc1NC(=O)Nc1cc(C(C)(C)C)nn1C	0.44	0.41
Cc1ccc2ncc([N+](=O)[O-])n2c1	1.2	-1
O=C(O)CSCC(=O)NCc1cccc(C(F)(F)F)c1	0.01	2.1
CCCCCc1ccc(-c2cn(Cc3ccc(C)cc3)nn2)cc1	0.16	-0.97
CCN(CC)S(=O)(=O)c1ccc(N/N=C/c2ccc(O)cc2O)nc1	0.34	-0.05

Taken from above:
C#CCOc1ccc(C2C3=C(CCCC3=O)N(CC(=O)O)C3=C2C(=O)CCC3)cc1Br @ KCNQ2 enhance baseline: 2
Cc1ccc(NC(=O)Cn2cccc2C2=NC(c3ccccc3)CO2)c(C)c1 (stereo not drawn) @ KCNQ2 enhance: 0.51

The listing continues:
SMILES	KCNQ2 enhance	KCNQ2 enhance baseline
COCCN(Cc1cc2cc(C)c(C)cc2nc1Cl)C(=O)Nc1ccccc1	0.24	-4
Cc1cc(C(=O)N/N=C/C=C/c2ccc(Br)cc2)n[nH]1	1.1	-0.48
COc1ccc(N2C(=O)CN(Cc3cc(OC)c(OC)c(OC)c3)C2=S)cc1	0.26	0.48
CCCCc1cc(=O)oc2cc(OCC(=O)NCc3ccccn3)c(Cl)cc12	1	0.41
Cc1noc(C)c1CSCC(=O)N(CCC(C)C)c1c(N)n(Cc2ccccc2)c(=O)[nH]c1=O	1.2	0.09
COc1ccccc1C1CC(c2cccs2)=NN1C(=O)CCC(=O)O (stereo not drawn)	0.69	-1.5
CN(C)/C=N/c1cc(=O)n(C)c(=O)n1CC1CC1	1.4	-2.5
CC(=O)Nc1nnc(S(=O)(=O)N2CCN(c3ccc(Cl)cc3[N+](=O)[O-])CC2)s1	0.17	0
Cc1nn(CC(=O)NCC2CCCO2)c(=O)c2ccccc12 (stereo not drawn)	1.3	-0.26
CN1C(=S)SC(N(O)C=C2C=CC(=O)C=C2)C1(C)C (stereo not drawn)	1.7	-0.76
O=C1NC(=Nc2ccccc2)SC1Cc1cccc(Cl)c1Cl (stereo not drawn)	0.74	-0.47
Cc1cc(C)c(C)c(OCC(=O)NCCN(C)C)c1	0.04	0.29
CCC[N+]1(CC#CC(O)(c2ccccc2)C2CCCCC2)CCCCC1 (stereo not drawn)	0.72	0.35
Cc1cccc(-c2noc(CCC(=O)NCc3ccccc3)n2)c1	0.04	0.96
Cc1c(C(=O)Nc2c(C)n(C)n(-c3ccccc3)c2=O)oc2ccc(Cl)cc12	0.29	0.08
Cc1ccc(CN2CCN(Cc3cnc(C)s3)CC2CCO)cc1 (stereo not drawn)	1.7	0.76
Cc1occc1-c1nc(-c2ccncc2)no1	1.1	-0.42
Nc1nc2c3ccccc3nc(Cc3ccccc3)n2n1	0.11	0.29
CCN=C(Nc1ccc2c(c1)OCO2)SC1CC(=O)N(c2ccc(OC)cc2)C1=O (stereo not drawn)	2.7	-0.64
O=C(CSc1n[nH]c(=O)[nH]c1=O)c1ccccc1[N+](=O)[O-]	0.52	0.75
O=C(O)c1nc2nc(Cl)c(Cl)nc2[nH]1	0.21	1
CSc1nc(Cl)c(C#N)c(-c2ccc(C)cc2)n1	2.4	-0.63
CC(C)NC(=O)COC(=O)c1cccc(NS(=O)(=O)/C=C/c2ccccc2)c1	0.55	-0.23
Cc1c(NC(=O)CNCc2ccc3c(c2)OCO3)c(=O)n(-c2ccccc2)n1C	0.25	-0.33
CSc1ccc(C#N)cc1NC(=O)c1cccnc1Cl	1.1	0.22

Arranged by value in KCNQ2 enhance baseline (descending): four from the list above.
structure	KCNQ2 enhance	KCNQ2 enhance baseline
Cc1ccc(CN2CCN(Cc3cnc(C)s3)CC2CCO)cc1 (stereo not drawn)	1.7	0.76
O=C(CSc1n[nH]c(=O)[nH]c1=O)c1ccccc1[N+](=O)[O-]	0.52	0.75
Nc1nc2c3ccccc3nc(Cc3ccccc3)n2n1	0.11	0.29
CC(C)NC(=O)COC(=O)c1cccc(NS(=O)(=O)/C=C/c2ccccc2)c1	0.55	-0.23

Profiles as entered above:
`COc1ccc(-c2oc3ccccc3c(=O)c2OCC(=O)O)cc1` reads KCNQ2 enhance = 0.85; KCNQ2 enhance baseline = -0.89
`O=C(NC1CCCCC1)c1ccc(S(=O)(=O)N2CCCC2)cc1` reads KCNQ2 enhance = 0.86; KCNQ2 enhance baseline = -2.2
`O=C(O)CSCC(=O)NCc1cccc(C(F)(F)F)c1` reads KCNQ2 enhance = 0.01; KCNQ2 enhance baseline = 2.1

(list continues)
SMILES	KCNQ2 enhance	KCNQ2 enhance baseline
CCOc1ccc(CCNC(=O)C2CCN(S(=O)(=O)N3CC(C)CC(C)C3)CC2)cc1OCC (stereo not drawn)	0.04	0
CCCc1cc(NCCCN2CCOCC2)n2c(nc3ccccc32)c1C#N	1	2.9
CCC1(c2ccc(F)cc2)NC(=O)N(CC(=O)N(C)C2CCS(=O)(=O)C2)C1=O (stereo not drawn)	0.91	0.54
C=CCSc1nnc(NC(=O)Cc2ccc(OC)c(OC)c2)s1	0.97	0.62
CC(=O)Oc1cc(OC(C)=O)c2c(C)cc(=O)oc2c1	1.2	-1.1
CC(=O)c1ccc(N2CCN(S(=O)(=O)c3c(C)[nH]c(C)c3C(=O)N3CCCCC3)CC2)cc1	0.53	-0.2
COc1ccc2nc(SCc3nc(N)nc(Nc4ccccc4)n3)[nH]c2c1	2.1	-0.03
O=C(COC(=O)c1ccc[nH]c1=O)c1ccc(Cl)s1	0.03	0.87
Cn1c(-c2cccc(F)c2)nc2c1c(=O)[nH]c(=O)n2Cc1ccccc1	1.1	0.14
CCOC(=O)N1CCN(C(=O)Cc2ccc(-n3c(=O)[nH]c4ccccc4c3=O)cc2)CC1	0.26	0.8
c1coc(-c2nn3c(Cn4nnc5ccccc54)nnc3s2)c1	0.57	0.97
COc1cc(OC)c(NS(=O)(=O)c2cc(Br)cnc2N)cc1Cl	0.48	-0.07
CN(C)S(=O)(=O)c1cccc(NC(=S)NC(=O)C2CCCCC2)c1	0.92	-0.06
CC(C)C(=O)Nc1cc(S(=O)(=O)Nc2cccc(Cl)c2)ccc1Cl	0.11	-0.91
CCC(C)C(=O)Nc1c2c(nc3c1CCC3)CCCC2 (stereo not drawn)	0.62	1.6
O=C(c1cncc(Br)c1)N1CCN(S(=O)(=O)c2ccc(Cl)cc2)CC1	0.51	-1.2
COc1ccc(C(=O)Nc2ncc(C)s2)cc1S(=O)(=O)N1CCCC1	0.19	-0.74
O=C(NCC1CCCO1)C1CCCN(S(=O)(=O)c2ccc(Cl)cc2)C1 (stereo not drawn)	0.92	0.66

Screening results: PubChem, Johns Hopkins Ion Channel Center
